Ecoli rRNA inh = inhibitors of bacterial rRNA selective over humanized ribosomes; GFP signal change (wild-type ribosome), % (concentration not given with the values); actives 1.6% (n = 350,000); AID 720706; E. coli WT GFP vs humanized-ribosome RFP mutants, fluorescence, 24 h; hits give low values; DMSO median 0, no signal -100;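 active = significant combined selectivity score with lowered wild-type GFP, culture density cut under 30%, mutant RFP and density less affected; inactive = any of these conditions unmet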; note: one replicate is shown; some compounds called inactive have numbers as strong as hits
AF4-AF9 inh = blocks AF4 peptide binding to human AF9; inhibition, % at 10 µM; AlphaScreen, biotin-AF4 peptide binding to FLAG-AF9; AID 651704; actives 0.47% (n = 350,000);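 active = every replicate reaching a set inhibition limit, whatever the replicate mean, cut at about 25% in these data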;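 note: 0% = plate neutral control median and 100% = total signal loss; the record names both 10 and 1 µM as test concentration; the first replicate is given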
Target sequence (P42568 whole entry, looked up): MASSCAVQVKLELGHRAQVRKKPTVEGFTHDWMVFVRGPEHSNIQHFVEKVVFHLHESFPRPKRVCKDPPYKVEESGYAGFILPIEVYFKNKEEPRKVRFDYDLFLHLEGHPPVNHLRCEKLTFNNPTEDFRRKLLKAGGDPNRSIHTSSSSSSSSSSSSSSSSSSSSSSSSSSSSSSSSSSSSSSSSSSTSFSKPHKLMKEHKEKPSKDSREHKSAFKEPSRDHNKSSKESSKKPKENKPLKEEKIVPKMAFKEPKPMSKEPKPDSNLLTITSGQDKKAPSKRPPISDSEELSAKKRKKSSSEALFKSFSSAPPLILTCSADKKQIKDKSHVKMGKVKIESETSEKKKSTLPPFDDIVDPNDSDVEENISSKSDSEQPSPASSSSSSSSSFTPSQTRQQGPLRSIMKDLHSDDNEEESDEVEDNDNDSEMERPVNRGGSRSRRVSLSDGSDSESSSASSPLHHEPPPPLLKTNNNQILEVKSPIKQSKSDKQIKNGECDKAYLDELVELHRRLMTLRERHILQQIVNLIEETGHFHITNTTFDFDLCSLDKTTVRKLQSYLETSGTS
FGF22 binding = shifts melting point of recombinant human FGF22 | Q9HCT0 | recombinant FGF22 thermal shift, SYPRO orange fluorescence; percent of sucrose octasulfate shift, DMSO zero | calls only at 9.99 µM | actives 1.5% (n = 340,000);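 active = melting point raised past a set limit in the mean and every replicate; three in four hits are not shown here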
Target sequence (Q9HCT0 whole entry, looked up): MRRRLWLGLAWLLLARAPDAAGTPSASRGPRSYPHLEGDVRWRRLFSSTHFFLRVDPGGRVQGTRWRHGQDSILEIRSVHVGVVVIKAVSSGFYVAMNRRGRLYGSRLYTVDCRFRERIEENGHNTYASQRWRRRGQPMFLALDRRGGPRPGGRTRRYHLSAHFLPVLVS
Ecoli rRNA inh OD600 = recorded beside Ecoli rRNA inh, whose call it bears; OD600 change, %; measured here: OD600 growth;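 optical density of the mix in the first replicate; 0 = DMSO median and -100 = no signal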
Ecoli rRNA inh RFP = recorded beside Ecoli rRNA inh, whose call it bears; RFP signal change, %; measured here: RFP humanized mutant strains;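 first replicate; 0 = DMSO median and -100 = no signal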
* hit, by the source's call; i = inactive; & = joins results of further samples.

SMILES	Ecoli rRNA inh	Ecoli rRNA inh OD600	Ecoli rRNA inh RFP	AF4-AF9 inh	FGF22 binding
COc1ccc2c3c(n(C)c2c1)[C@H](CO)N(C(=O)C1CCCC1)CC31CCN(C(=O)Nc2cccc(F)c2)CC1	0.6	-5.8	-0.5	-0.5	i
COc1ccc(S(=O)(=O)N2CCOCC2)cc1NC(=O)CCOc1ccc(C(C)(C)C)cc1	1.9	0.9	-0.8	-0.4	i
CCC(=O)N(C)C[C@H]1Oc2ncc(C#C[C@H](C)O)cc2C(=O)N([C@H](C)CO)C[C@@H]1C	1.1	8.4	-3.4	-3.0	i
O=S1(=O)CC(N2CCC(c3ccccc3)CC2)CN1Cc1ccc(F)cc1 (configuration not stated)	-5.8	-36.6	-7.1	1.6	i
Cc1ccc(S(=O)(=O)Nc2cccc3c2O[C@H](CN(C)C(=O)Nc2ccc(F)cc2)[C@H](C)CN([C@H](C)CO)C3=O)cc1	0.3	-5.4	2.6	3.6	i
C[C@@H]1CN([C@@H](C)CO)C(=O)c2cc(-c3ccncc3)cnc2O[C@@H]1CN(C)C(=O)c1ccc(F)cc1	6.2	14.2	-4.0	-20.3	i
C/C=C/c1ccc2c(c1)O[C@@H](CN(C)C(=O)C1CCCCC1)[C@H](C)CN([C@@H](C)CO)S2(=O)=O	-2.1	-25.1	-1.4	5.4	i
Cn1c(=O)c2c(ncn2CC(=O)NC[C@H]2O[C@@H](n3cnc4c(N)ncnc43)[C@H](O)[C@@H]2O)n(C)c1=O	2.9	6.1	-1.6	-0.6	i
CCCNC(=O)N1CC[C@@H]2[C@H]1c1cc(C#Cc3ccc(OC)cc3)ccc1N(C)[C@@H]2CO	-7.6	0.4	1.8	6.1	i
O=C(N[C@H]1CC[C@H](CCNS(=O)(=O)c2ccc(F)cc2)O[C@@H]1CO)C1CC1	-0.4	-7.9	-2.9	-0.6	i
COc1ccc(S(=O)(=O)Nc2cccc3c2O[C@@H](CN(C)S(=O)(=O)c2ccc(F)cc2)[C@H](C)CN([C@H](C)CO)C3=O)cc1	1.8	6.7	1.0	-12.1	i
CCc1nc2c(OCc3ccc(C#N)cc3)cccn2c1N(C)C(=O)c1ccc(C)cc1	-25.9	-58.1	12.3	1.1	i
CC(NC(=O)C1CCCN1C(=O)c1cccs1)c1ccc(Cl)cc1Cl (configuration not stated)	9.0	10.6	-2.9	1.7	i
O=C(Nc1ccccc1F)N1C[C@H]2[C@@H](c3ccccc31)[C@@H](CO)N2C(=O)C1CCCCC1	3.5	9.7	-1.9	1.0	i
CC(C)(C)NC(=S)N1CCC2CC1c1c(Cl)cccc12 (configuration not stated)	5.8	9.9	2.2	3.8	i
CCC(=O)Nc1ccc2c(c1)C(=O)N(C)[C@@H]1CC[C@H](CC(=O)NCc3ccc(OC)cc3)O[C@H]1CO2	3.9	1.2	-1.5	0.9	i
Cc1noc(C)c1S(=O)(=O)Nc1ccc2c(c1)C(=O)N([C@@H](C)CO)C[C@H](C)[C@H](CN(C)C(=O)NC(C)C)OCCCC[C@H](C)O2	5.3	4.3	-1.3	1.6	i
C[C@@H]1CN([C@@H](C)CO)C(=O)c2cc(NC(=O)Nc3ccccc3)ccc2O[C@@H]1CN(C)S(=O)(=O)c1cccs1	-4.4	-25.9	-4.6	-7.2	i
O=C(Nc1cc(F)ccc1F)N[C@@H]1C=C[C@@H](CC(=O)N2CCc3ccccc3C2)O[C@H]1CO	-16.6	-12.6	4.5	0.7	i
O=C(Cc1ccc(NC(=O)C2CCN(C(=O)C3CCC3)CC2)cc1)Nc1ccc(C(=O)N2CCOCC2)cc1	2.1	12.8	4.3	6.0	i
CCC(C(=O)NCc1ccccc1)n1c(-c2cccs2)nc2ccccc21 (configuration not stated)	-0.6	-2.7	-1.5	-3.0	i
COc1ccc(Oc2c(OC)cc(NCc3ccc(CN)cc3)c3ncccc23)cc1	34.6	12.3	2.3	0.5	i
O=C(COC(=O)Cc1c(Cl)cccc1Cl)NCc1ccccc1	-45.8	-62.2	-6.0	-4.4	i
COCC(=O)N1[C@H](CO)[C@H](c2ccccc2)C12CN(C(=O)NC1CCCCC1)C2	-1.0	4.3	-3.8	-1.8	i
CC(=O)Nc1ccc(S(=O)(=O)NCC2CCN(C(=O)C(=O)c3cccs3)CC2)cc1	7.6	2.8	-0.1	1.1	i
CC1C=NC(S(=O)(=O)N2CC[C@@H]3[C@H]2c2cc(-c4cccc(F)c4)ccc2N(C)[C@H]3CO)=N1 (some centres not stated)	-13.3	-37.7	17.1	2.9	i
CC[C@]1(C(=O)OC)[C@H]2C(=O)N(Cc3ccccc3)C(=O)[C@H]2[C@H]2CN=C(SCc3ccc(C)cc3)N21	-34.5	-33.6	-5.4	0.7	i
Cc1ccc(S(=O)(=O)N[C@@H]2CC[C@@H](CC(=O)N3CCN(c4ccccc4)CC3)O[C@@H]2CO)cc1	-1.7	-9.7	0.5	0.7	i
N#C[C@@H]1N[C@@H](CO)[C@H]1c1ccc(C#Cc2ccccc2F)cc1	0.3	1.5	12.6	-1.4	i
CC(C)NC(=O)N(C)C[C@@H]1Oc2ccc(NC(=O)NC3CCCCC3)cc2CC(=O)N([C@@H](C)CO)C[C@H]1C	5.6	11.5	2.8	-2.5	i
COCC(=O)Nc1ccc2c(c1)C(=O)N(C)[C@@H]1CC[C@@H](CC(=O)N3CCc4ccccc4C3)O[C@@H]1CO2	-0.9	0.1	-0.6	-2.8	i
CN(C)CC(=O)N1[C@@H]2Cn3c(ccc(-c4cccnc4)c3=O)[C@H]1[C@@H](C(=O)NC1CCC1)[C@@H]2CO	0.5	6.0	-0.7	1.6	i
OC[C@@H]1[C@@H](c2ccc(C#CC3(O)CCCC3)cc2)[C@H]2CN(Cc3ccccc3F)CCCCN12	-0.9	6.1	-2.7	-4.9	i
COc1cccc(C(=O)Nc2ccc3c(c2)C(=O)N(C)C[C@@H](OC)[C@H](C)CN(C(=O)C2CCOCC2)[C@H](C)CO3)c1	4.5	2.9	1.8	-1.4	i
CC1(Cc2ccc(OC(F)(F)F)cc2)C(=O)Nc2c(Cl)ccc(Cl)c21 (configuration not stated)	-5.8	-16.2	14.6	-3.0	i
C[C@H](CO)N1C[C@H](C)[C@@H](CN(C)C(=O)Nc2ccc3c(c2)OCO3)Oc2ncc(-c3ccncc3)cc2C1=O	2.4	7.6	-0.5	-0.3	i
C[C@@H]1CN([C@@H](C)CO)C(=O)c2cc(-c3ccncc3)cnc2O[C@H]1CN(C)C	0.1	4.9	-0.6	-3.8	i
O=C(CC1CC1)Nc1ccc2c(c1)[C@H]1C[C@H](CC(=O)N3CCCCC3)O[C@@H](CO)[C@H]1O2	3.8	3.0	-1.4	1.8	i
C[C@H](CO)N1C[C@H](C)[C@H](CN(C)Cc2ccc(C(=O)O)cc2)Oc2c(NC(=O)c3cnccn3)cccc2C1=O	1.4	4.7	-1.1	-4.7	i
C=CCCC(=O)N1C[C@H]2CON(C)[C@H]2C[C@H]1c1ccccc1Br	5.5	-1.3	2.1	-0.6	i
Cc1ccc(S(=O)(=O)N(C)C[C@@H]2Oc3ccc(NC(=O)Cn4cnnn4)cc3CC(=O)N([C@H](C)CO)C[C@@H]2C)cc1	0.5	-0.7	0.7	1.9	i
C[C@H](CO)N1C[C@H](C)[C@@H](CN(C)S(=O)(=O)c2ccc(F)cc2)Oc2c(NS(=O)(=O)c3ccc(F)cc3)cccc2C1=O	0.3&10.9	2.0&5.5	0.3&3.4	4.3&-1.4	i
C[C@@H]1CN([C@H](C)CO)C(=O)Cc2cc(NC(=O)Nc3ccc(F)cc3)ccc2O[C@H]1CN(C)Cc1ccc(Oc2ccccc2)cc1	3.4	10.6	1.3	-15.7	i
COC(=O)c1ccc2nc(-c3ccc(F)cc3)c(Cc3cccc(F)c3)n2c1	-23.6*	-14.7*	2.1*	0.9	i
C[C@H]1CN([C@@H](C)CO)S(=O)(=O)c2ccc(-c3ccncc3)cc2O[C@H]1CN(C)C(=O)c1cccc(F)c1	7.1&-4.7	15.9&-1.3	-2.1&-2.4	-1.5&0.6&0.2	i
C[C@@H]1CN([C@H](C)CO)C(=O)c2cc(NC(=O)NC3CCCCC3)ccc2O[C@H]1CN(C)C(=O)Nc1ccc2c(c1)OCO2	-5.5	-5.5	-0.4	-1.5	i
CO[C@H](CN(C)Cc1nccs1)[C@@H](C)CN([C@H](C)CO)S(=O)(=O)c1ccc(C)cc1	-4.4	2.8	-1.3	-0.1	i
COc1ccc(NC(=O)N(C)C[C@H]2Oc3c(NC(=O)Nc4cccc5ccccc45)cccc3C(=O)N([C@@H](C)CO)C[C@@H]2C)cc1	0.9	3.1	0.4	9.3	i
CCOC(=O)N1CCN(C(=O)CCN2C(=O)/C(=C\c3ccc(OC)c(OC)c3)SC2=S)CC1	12.9	11.8	0.5	-1.7	i
O=C(C[C@@H]1C[C@H]2c3cc(NC(=O)NC4CCCC4)ccc3O[C@H]2[C@@H](CO)O1)NC1CCCCC1	2.9	6.3	-0.6	-1.3	i
CN1CCN(C(=O)C[C@@H]2C[C@@H]3c4cc(NS(C)(=O)=O)ccc4O[C@@H]3[C@@H](CO)O2)CC1	2.5	-2.6	-2.5	1.5	i
CC(=O)c1ccc(NC(=O)c2cn(C)c(=O)c3ccccc23)cc1	0.8	4.6	-3.3	-2.0	i
COc1cc2c(cc1OC)C1CCc3cc4c(cc3C1N=C2)OCO4 (configuration not stated)	-4.7	-5.0	2.4	-0.5	i
C[C@@H]1CCCCO[C@H](CN(C)C(=O)Nc2ccc3c(c2)OCO3)[C@@H](C)CN([C@@H](C)CO)C(=O)c2cc(NC(=O)C3CCCCC3)ccc2O1	-1.6	-1.0	0.7	4.7	i
CC1(C)CC(=O)C(CSC(=O)c2ccccc2)C(=O)C1	16.2	5.6	-7.2	0.8	i
CN(C)C(=O)c1ccc(-c2ccc3c(c2)[C@H]2[C@H](CCN2C(=O)c2ccccc2)[C@@H](CO)N3)cc1	-5.7	1.3	-4.6	-1.8	i
CCc1nc2ccc(C(=O)N3CCN(S(=O)(=O)CC)CC3)cn2c1N(C)Cc1cccs1	2.5	15.4	-1.8	0.6	i
COc1ccc(S(=O)(=O)N2C[C@@H](O)COC[C@H]3O[C@H](CC(=O)N[C@@H]4CCN(Cc5ccccc5)C4)CC[C@@H]32)cc1	-0.5	-15.2	-3.6	1.9	i
COCC#Cc1cnc2c(c1)C(=O)N([C@@H](C)CO)C[C@H](C)[C@H](CN(C)C(=O)Nc1cc(F)ccc1F)O2	5.9	-2.3	-3.8	-3.2	i
C[C@@H]1CN([C@H](C)CO)S(=O)(=O)c2ccc(C#C[C@@H](C)O)cc2O[C@H]1CN(C)CC1CCOCC1	-0.9	-1.7	-1.5	-2.1	i

(continued)
SMILES	Ecoli rRNA inh	Ecoli rRNA inh OD600	Ecoli rRNA inh RFP	AF4-AF9 inh	FGF22 binding
CNC[C@@H]1Oc2c(NC(=O)Nc3ccc(F)cc3)cccc2C(=O)N([C@@H](C)CO)C[C@@H]1C	0.5	5.8	-0.3	-1.5	i
O=C(C[C@H]1C=C[C@@H](NS(=O)(=O)c2ccc(F)cc2)[C@H](CO)O1)NCCc1ccncc1	0.6	4.9	-1.3	-1.0	i
COC(=O)c1cnc(NC(=O)C2(C)CCN2C(=O)C(C)C)s1 (configuration not stated)	7.4	9.0	1.8	-3.0	i
CC(C)NC(=O)N1[C@H](CNC(=O)CN(C)C)[C@H](c2ccccc2)[C@@H]1CO	2.0	4.5	0.2	-1.5	i
CCOC(=O)C1(C)CCN1C(=O)c1ccccc1 (configuration not stated)	7.5	4.4	1.2	-1.5	i
COc1ccccc1-c1ccc2n(c1=O)C[C@@H]1[C@@H](CO)[C@H](C(=O)N[C@H](C)c3ccccc3)[C@H]2N1C	-0.5	2.9	-1.1	-1.2	i
C[C@H]1CN([C@@H](C)CO)C(=O)c2cc(N(C)C)ccc2O[C@H]1CN(C)Cc1ccc(C(F)(F)F)cc1	-0.8	7.6	-0.7	7.5	i
CC1(C2CC2)NC(=O)N(CC(=O)Nc2ccc(OC(F)F)cc2)C1=O (configuration not stated)	3.9	15.8	0.7	1.2	i
CN1CCN(C(=O)c2cccc(-c3cnc4cnc(-c5ccccc5Oc5ccccc5)cn34)c2)CC1	-22.6	-39.2	-3.9	23.4	i
COc1ccc(C#Cc2ccc([C@H]3[C@@H](CO)N4CCCCN(C(=O)Nc5ccccc5)C[C@H]34)cc2)cc1	-52.6	-47.5	-2.2	3.8	i

Laid out differently: three of the compounds above.
SMILES | Ecoli rRNA inh | Ecoli rRNA inh OD600 | Ecoli rRNA inh RFP | AF4-AF9 inh | FGF22 binding
CC1(Cc2ccc(OC(F)(F)F)cc2)C(=O)Nc2c(Cl)ccc(Cl)c21 (configuration not stated) | -5.8 | -16.2 | 14.6 | -3.0 | i
C[C@H](CO)N1C[C@H](C)[C@@H](CN(C)C(=O)Nc2ccc3c(c2)OCO3)Oc2ncc(-c3ccncc3)cc2C1=O | 2.4 | 7.6 | -0.5 | -0.3 | i
COC(=O)c1cnc(NC(=O)C2(C)CCN2C(=O)C(C)C)s1 (configuration not stated) | 7.4 | 9.0 | 1.8 | -3.0 | i

The list is partial, so the mix of outcomes need not match the whole.
